NPYLR7 ag: agonists of mosquito NPYLR7 receptor, primary screen, cell-based, Aedes aegypti, calcium fluorescence, mosquito biting behavior. HEK293T NPYLR7/Galpha15, GCaMP6s calcium fluorescence. activation, % at 10 µM. actives 0.15% (n = 270,000). Aedes aegypti neuropeptide Y-like receptor 7 (NPYLR7). AID 1259423, 2018; in the data active = activation above about 40%;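 also: 0% = vehicle and 100% = reference agonist at the receptor; some compounds past the cut are filed as inactive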
NPYLR7 ag max-min: recorded beside NPYLR7 ag, whose call it bears; activation, %; measured here: Max-Min RFU normalised activation; some inactives read as strong as hits;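 span of the calcium signal over five minutes; 0% = vehicle and 100% = native peptide agonist; compound fluorescence can raise it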
* = called active by the depositor; & = joins results of further samples.

Values in the order – NPYLR7 ag	NPYLR7 ag max-min
Cc1ccc(-c2nn(CC(=O)Nc3ccc(F)cc3F)c(=O)c3nc(C)sc23)c(C)c1
 : -2	-5
CC(C)c1nc2ccccc2n1Cc1ccc(F)cc1
 : -2	-5
COc1ccc(NC(=O)C2CCN(C(=O)[C@@H]3CCCN3C(=O)Nc3cc(C(F)(F)F)ccc3Cl)CC2)cc1
 : 30	19
Cc1ccc(S(=O)(=O)NC(=O)C2(C)CCN2C(=O)C2(c3ccc(Cl)cc3)CCC2)nc1 (configuration not stated)
 : 5	4
O=c1[nH]c2cc3c(cc2cc1CN1CCCN2CCC[C@H]2C1)OCO3
 : 18	17
CC(c1ccccc1)N(C)CC(=O)Nc1ccc2c(c1)OCO2 (configuration not stated)
 : -4	-5
CC(C)(C)c1nnnn1CC(=O)Nc1ccc(Br)cc1
 : 3	2
COc1nc2ccccc2cc1CN1CCN2C(=O)CN(C)C(=O)C2C1 (configuration not stated)
 : 2	0
CN(C)P(=NC(=S)Nc1ccc(I)cc1)(c1ccncc1)N(C)C
 : 11	10
O=C(c1c(F)cccc1Cl)N1CCC(c2nc(-c3ccccc3F)no2)CC1
 : 2	0
CC1CCCCC1NC(=O)CN1CCN(CC(=O)Nc2ccc(Cl)c(C(F)(F)F)c2)CC1 (configuration not stated)
 : 27	38
Cn1c(CO)nnc1CC1CCN(C(=O)c2c[nH]c3ccccc23)CC1
 : 5	3
Cc1nc(CNC(=O)C2CC3(CCNCC3)CN2)nc2c1CCCC2 (configuration not stated)
 : 9	4
O=C(O)C1COC2(CCN(C(=O)c3cccc(Cl)c3)CC2)N1C(=O)c1ccco1 (configuration not stated)
 : 10	19
O=C(c1cccnc1)N1CCN(C(=O)c2ccccc2F)CC1
 : 4	1
O=C(O)CCNC(=O)c1ccc(N=Nc2ccc(O)c(C(=O)O)c2)cc1
 : -1&-19&23	-2&-5&22
CC(Oc1ccccc1)C(=O)NCc1ccc(-c2ncc(-c3ccc(F)cc3)[nH]2)cc1 (configuration not stated)
 : -4	-10
Cc1ccc(Br)cc1N1C(=O)CC(C)(C)C1=O
 : 11	9
CC1CCCCN1C(=O)CN1C(=O)NC2(CCCCC2C)C1=O (configuration not stated)
 : 8	6
Cc1nc(=O)[nH]c(C)c1CCC(=O)N(C)Cc1cccc2ncccc12
 : 8	2

Next part; it opens with the four that closed the last part.
Values in the order – NPYLR7 ag	NPYLR7 ag max-min
CC(Oc1ccccc1)C(=O)NCc1ccc(-c2ncc(-c3ccc(F)cc3)[nH]2)cc1 (configuration not stated)
 : -4	-10
Cc1ccc(Br)cc1N1C(=O)CC(C)(C)C1=O
 : 11	9
CC1CCCCN1C(=O)CN1C(=O)NC2(CCCCC2C)C1=O (configuration not stated)
 : 8	6
Cc1nc(=O)[nH]c(C)c1CCC(=O)N(C)Cc1cccc2ncccc12
 : 8	2
Cn1c(=O)[nH]c(=O)c2c1nc(N1CCN(Cc3ccccc3F)CC1)n2Cc1ccccc1F
 : 9	3
CCc1nnc(CN(C(=O)C(c2cccc(C)c2)N(C)C)C(C)C)o1 (configuration not stated)
 : 10	4
CCC(C)NC(=O)CCN(Cc1ccco1)c1nc(-c2ccc(F)cc2)nc2ccccc12 (configuration not stated)
 : 22	23
Fc1ccc(-c2nc(-c3ccncc3)no2)cc1
 : 4	8
CC(=O)c1ccc(NC(=O)N2CCc3ccccc3C2c2ccccc2Cl)cc1 (configuration not stated)
 : 0	5
CCn1cnc(NC(=O)NCc2ccccc2-n2ccnc2)n1
 : 7	-6
Cn1nc(-c2ccc(Cl)cc2)ccc1=O
 : 7	3
COCc1c(Br)c(C)nc(OCC(=O)N/N=C\c2cc(OC)c(OC)cc2[N+](=O)[O-])c1C#N
 : 12	18
Cc1cc(C)c(C)c(S(=O)(=O)Nc2ccccc2C(=O)NCc2ccc(Cl)cc2)c1C
 : 7	7
COc1cc(CN2CCC(CO)(CCOc3ccccc3)CC2)cc(OC)c1
 : 5	6
O=C(Cc1cccs1)OCc1cc(=O)n2cc(Br)ccc2n1
 : 0	35
CNC(=O)C(C)OC(=O)CNS(=O)(=O)c1c(C)c(C)cc(C)c1C (configuration not stated)
 : -3	-2
Cc1cccc(CNC(=O)Cn2ccc(=O)c3sccc32)c1
 : -5	-5
COc1cn(CC(=O)Nc2c(C)cc(C)cc2C)c(CSc2nccc(C)n2)cc1=O
 : -4	-10
O=C1CSC(c2cccc(NS(=O)(=O)c3ccc4ccccc4c3)c2)N1c1ccccc1F (configuration not stated)
 : 3	8
CCNC(=O)N(CC(=O)N1CCc2sccc2C1COc1cccc(OC)c1)CC1CC1 (configuration not stated)
 : -4	3
COc1ccc(OC)c(C(=O)NC2CC(=O)N(c3ccccc3)C2)c1 (configuration not stated)
 : 1	0
Nc1[nH]nc2nc(N3CCCCC3)nc(-c3ccco3)c12
 : -1	1
FC(F)(F)c1cc(-c2ccoc2)c2nc[nH]c2c1
 : 3	2
O=C(Nc1nc(CC(=O)N2CCn3c2nc2ccccc23)cs1)C1CCCC1
 : 5	1

(further entries)
Values in the order – NPYLR7 ag	NPYLR7 ag max-min
O=c1cccc2n1CC1CC2CN(c2nc(NCCC3=CCCCC3)nc(N3CCCC3)n2)C1 (configuration not stated)
 : -2	-2
Cc1cc(C(=O)NC(C)c2ccccc2Br)sc1C (configuration not stated)
 : -1	-1
CCCCN(CC(=O)N1c2ccccc2-n2cccc2C1c1ccc(F)cc1)C(=O)c1cccc(Br)c1 (configuration not stated)
 : -13	-9
CCOC(=O)c1ccc(NC(=O)c2cccn(OCc3cccc([N+](=O)[O-])c3)c2=O)cc1
 : 17	17
Cc1ccc(N(CC(=O)NCCSc2ccccn2)S(=O)(=O)c2ccc(F)cc2)cc1
 : -8	-8
COCCOc1nc(-c2ccccc2C)n(-c2ccc(NC(=O)c3cccc(Br)c3)cc2)n1
 : -9	-11
CCCCCn1c(N/N=C\c2ccc(Br)cc2)nc2c1c(=O)[nH]c(=O)n2C
 : 1	0
CCOC(=O)c1ccc(NC(=O)c2sc(NC(=O)c3ccc(Cl)cc3)c(C(=O)OCC)c2C)cc1
 : -14	-7
O=C(CCS(=O)Cc1ccccc1Br)Nc1ccccc1F (configuration not stated)
 : -4	-3
CC(C)CN(CC(=O)Nc1nc(CC(=O)N[C@H]2CCCCNC2=O)cs1)C(=O)c1ccc(Cl)cc1
 : 16	13
CC1CN(C)CCN1CC(=O)Nc1ccnn1Cc1ccccc1 (configuration not stated)
 : 10	4
C=C1/C(=C\C=C2/CCC[C@]3(C)[C@@H]([C@H](C)CCCC(C)(C)O)CC[C@@H]23)C[C@@H](O)C[C@@H]1O
 : -8	-11
Cc1c(Br)c([N+](=O)[O-])nn1CC(=O)NCc1ccc(Cl)cc1
 : -3	-6
C=CCn1c(SCc2ccc(C(=O)Nc3ccc(OC)cc3)cc2)nnc1-c1ccccc1Cl
 : -1	6
C=CCN(Cc1ccco1)Cc1c(C(=O)O)[nH]c2ccc(C)cc12
 : 8	-9
CC1N=C2c3ccccc3N=C(SCc3cc(=O)n4cc(Cl)ccc4n3)N2C1=O (configuration not stated)
 : 27	11
CCOc1nc(-c2ccc(C)cc2)n(-c2ccc(NC(=O)c3ccc(OC)cc3OC)cc2)n1
 : 9	13
Cc1ccccc1C(=O)N1CCSC12CCN(C(=O)c1cc(C(F)(F)F)cc(C(F)(F)F)c1)CC2
 : -4	-3
O=S(=O)(CC1CC1)c1ncc(CN2CCOCC2)n1CC1CCCO1 (configuration not stated)
 : 4	2
CC(C)(C)C(=O)N1CCN(c2nnc(SCC(N)=O)s2)CC1
 : -3	-2

The list continues:
Values in the order – NPYLR7 ag	NPYLR7 ag max-min
O=C(CSc1n[nH]c(CC2CCCC2)n1)Nc1cccc(F)c1
 : -12	-12
C=CCn1c(C)csc1=Nc1ccc(S(=O)(=O)Nc2nc(C)cc(C)n2)cc1
 : -2	-2
CCOCCOc1c(Cl)cccc1NCc1cc(=O)n2ccccc2n1
 : 4	3
Cn1c(CCC(N)=O)n[nH]c1=S
 : -1	-2
N#CC(=Cc1ccc(Cl)cc1Cl)S(=O)(=O)c1ccc(Cl)cc1
 : 5	4
C=CCN(Cc1ccccc1Cl)C(=O)CCC1CCOC1=O (configuration not stated)
 : 8	2
Cc1nnc(NC(=O)Cc2n[nH]c(=O)c3ccccc23)s1
 : -3	-3
COCc1cc(CN2CCCC(C(=O)c3ccc(OC)c(OC)c3)C2)ccc1OC (configuration not stated)
 : 17	1
O=C(CSc1ncnc2ccccc12)N1CCOCC1
 : 0	1
Cn1cnc2c1c(=O)n(CCCSc1ncccn1)c(=O)n2C
 : 1	8
CC(=O)CSc1nc(C)nc2scc(-c3cccs3)c12
 : 5	7
Cc1c(C(=O)N2CCN(c3ncccc3C(=O)NCC3CCCO3)CC2)oc2ccccc12 (configuration not stated)
 : 23	26
OCC1(CCCc2ccccc2)CCN(Cc2nc3c(s2)CCCC3)CC1
 : 13	16
Cc1ccccc1C(=O)N[C@@H]1CCCCC1NC(=O)C1CCCN(C(=O)CCc2ccccc2)C1 (some centres not stated)
 : 19	17
Cc1ccc(NC(=O)C2(C)CCN2C(=O)CC2CCCC2)cc1 (configuration not stated)
 : 7	2
CCn1cc(S(=O)(=O)NC2(c3cccc(Br)c3)CCCCC2)cn1
 : -1	-4
Cc1nc(Cl)cc(N2CCCC2C(=O)NCc2ccco2)n1 (configuration not stated)
 : 1	0
CCc1nc2ccc(C(=O)NCc3ccccc3OC)cn2c1N(C)Cc1ccncc1
 : 3	-8
CCc1cn[nH]c1C1CCN(C(=O)c2cc(-c3cnn(C)c3C)n[nH]2)CC1
 : -4	-4
CCN(CC)CCN(C)Cc1nc(Cc2ccccc2F)no1
 : -13	-14

Part of the list above, bar-delimited:
Structure | NPYLR7 ag | NPYLR7 ag max-min
COc1cn(CC(=O)Nc2c(C)cc(C)cc2C)c(CSc2nccc(C)n2)cc1=O | -4 | -10
O=C1CSC(c2cccc(NS(=O)(=O)c3ccc4ccccc4c3)c2)N1c1ccccc1F (configuration not stated) | 3 | 8
CCNC(=O)N(CC(=O)N1CCc2sccc2C1COc1cccc(OC)c1)CC1CC1 (configuration not stated) | -4 | 3
COc1ccc(OC)c(C(=O)NC2CC(=O)N(c3ccccc3)C2)c1 (configuration not stated) | 1 | 0

The results go on.
Values in the order – NPYLR7 ag	NPYLR7 ag max-min
COc1ccc(-c2nccn2CC(C)(C)OC)c(Cl)c1OC
 : 19	13
N#Cc1ccc(OCCN2CCN(CCNC(=O)c3ccco3)CC2)cc1
 : -1	-2
COc1ccc(C2NC(C(=O)O)Cc3[nH]cnc32)cc1CSc1nc2ccccc2[nH]1 (configuration not stated)
 : -2	-11
O=C(c1n[nH]c(=O)c2ccccc12)N1CCCN(Cc2ccc(F)cc2)CC1
 : -14	-15
CCN(Cc1nccn1C)C(=O)c1ccc(N2CCSCC2)nc1
 : 4	2
O=c1c2ccccc2n2c(=S)[nH]nc2n1-c1ccccc1
 : 7	7
CC1Cc2cc(CN(C)Cc3ncc[nH]3)ccc2O1 (configuration not stated)
 : 0	-2
S=c1[nH]nc(COc2ccccc2)n1CCCN1CCOCC1
 : -7	-11
O=C1CN(C(=O)c2ccccc2CCc2ccccc2)CCN1
 : -3	-1
C=CCN1C(=O)NC(c2cc(OC)ccc2OC)C2=C1CN(Cc1ccc3c(c1)OCO3)C2=O (configuration not stated)
 : 12	20
COc1ccc(C(=O)N(Cc2cc(NC(=O)c3ccccc3Cl)ccc2N(C)C)C2CCCCC2)cc1
 : 2	8
COc1ccccc1-c1cnc2c(Nc3ccc(C(C)C)cc3)nccn12
 : -2	-8
NC(=O)c1cnc2n1CCN(C(=O)CSc1ccc(Cl)cc1)C2
 : 2	2
COc1cc(CN(C)C(=O)c2ccc(-c3cc(-c4cccc5ccccc45)[nH]n3)cc2)cc(OC)c1OC
 : 25	17
COc1ccc(-c2cn(CC(=O)N(C)c3cccc(C)c3)nc2N2CCOCC2)cc1
 : -9	-11
CCc1ccc(-c2nc(SCc3cc(=O)c(O)co3)n[nH]2)cc1
 : 9	4
CN(Cc1ccccc1)C(=O)CN1CN(c2ccccc2)C2(CCN(S(=O)(=O)c3ccc(Cl)cc3)CC2)C1=O
 : 16	9
COc1ccc(-c2nc(CN3CCN(C(C)=O)CC3)c(C)o2)cc1OC
 : 5	10
FC(F)(F)c1ccnn1-c1nc(-c2ccc3c(c2)OCCO3)cs1
 : 3	3
O=[N+]([O-])c1cccc(CSc2nnc(NC3CC3)s2)c1
 : 0	6

(next part)
Values in the order – NPYLR7 ag	NPYLR7 ag max-min
Cc1[nH]c(=O)c(C#N)c(C)c1CCC(=O)Nc1nccs1
 : 1	6
COc1ccc(NC(=O)c2cccnc2Nc2cc(Cl)ccc2C)cc1
 : -13	-16
COc1ccc(-n2c(CN)n[nH]c2=O)c(OC)c1
 : 10	2
Cn1c(SCC(=O)NC(=O)Nc2ccc3c(c2)OCCO3)nnc1C(F)(F)F
 : 5	3
COC(=O)C(c1ccc(Cl)c(Cl)c1)N(C)C(=O)c1ccc(C#N)cc1 (configuration not stated)
 : -1	-3
Cc1ccc(C(c2ccccc2)N2CCN(C(=O)c3cc(C(C)(C)C)oc3C)CC2)cc1 (configuration not stated)
 : 15	-3
CCCCC(CC)C(=O)N1CCC2(CC1)C(=O)N(CC(=O)Nc1cccc(OC)c1)CN2c1ccccc1 (configuration not stated)
 : 13	22
NS(=O)(=O)c1cccc(CNC(=O)c2ccc(C(F)(F)F)nc2Cl)c1
 : 9	5
O=C(CSc1cn(CC(=O)N2CCCCCC2)c2ccccc12)Nc1cccc(Cl)c1
 : 14	15
CCCN(CC(=O)Nc1cc(C(C)(C)C)nn1-c1ccc(OC)cc1)C(=O)c1cc(Cl)cc(Cl)c1
 : 2	10
CCNc1ncc(-c2nccn2CCn2cccn2)cn1
 : -1	-5
O=C(Cn1cc(C(F)(F)F)ccc1=O)NN=Cc1cccs1
 : 1	8
CN1CC[C@H]2CC[C@@H](C1)N2c1nc(-c2ccncc2)nc2c1CNC2
 : 0	5
Cc1cc(C)c2sc(N(CCCn3ccnc3)C(=O)C3COc4ccccc4O3)nc2c1 (configuration not stated)
 : 14	17
COCCNC(=O)CSc1nc(-c2ccc(C)cc2)nc2c1c(=O)n(C)c(=O)n2C
 : 0	-4

Screening data (PubChem)

Not all compounds are listed. The share of hits here may be higher or lower than overall.
